TRb-SRC2 inh = disrupts binding of human TR beta to SRC2; Potency, µM (doses to about 106 µM), without a hit: at the top dose activity change, negative = inhibition, actives largely listed as inhibitors; P10828; 280,000 compounds, 0.065% hits; TRbeta-SRC2 peptide binding, fluorescence polarization; receptor liganded with 1 µM T3;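 further: plate controls were bound peptide for no effect and peptide without receptor for full effect; nearly all actives have a fitted effect of over 50% in size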
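Decrease in fluorescence polarization of 20 nM Texas Red SRC2 coactivator peptide flagged inhibition of its binding to 0.6 uM TRb LBD; 1 uM T3 included, incubation 5 hr, ex 555/em 632 nm.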
RECQ1 inh = blocks DNA unwinding by human RECQ1; Potency, µM (doses to about 57.3 µM), inactives show top-dose activity, negative = inhibition, actives largely listed as inhibitors; AID 2549; 240,000 compounds, 0.54% hits; RECQ1 DNA unwinding, red fluorescence kinetic read; P46063;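 further: plate controls were vehicle for no effect and no enzyme for full effect; nearly all actives have a fitted effect of over 30% in size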
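RECQ1T1 50 nM; forked duplex (20 bp + 30-nt ss tails) 200 nM, ATP 2 mM final; pH 8.0, 2 mM MgCl2, 2.5 ug/ml poly(dI-dC); 15 min compound preincubation; discontinuous kinetic read over 2 h at RT.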
Tau FP inhib = blocks human tau fibril formation measured by polarization | P10636 | K18 P301L tau heparin fibrillization, Alexa594 FP, 6 h | Potency, µM (titrated, usually from 57.7 µM), inactives show at the highest dose activity, negative = inhibition, most hits filed as inhibitors | 280,000 compounds, 0.39% hits | AID 1468; further: nearly all actives have a fitted effect of over 55% in size
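Recombinant K18 P301L […], labeled with Alexa 594 at 0.24 uM over 15 uM unlabeled; heparin inducer 20 uM final; 37 C, 6 hr; FP endpoint.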
Tau ThT inhib = blocks human tau fibril formation measured by thioflavin T; P10636; recombinant tau K18 P301L, heparin-induced fibrillization, ThT fluorescence; Potency, µM (highest dose often 57.4 µM), for the others: at the highest dose activity, negative = inhibition, hits mostly inhibitors; 270,000 compounds, 2.1% hits; AID 1460; further: nearly all actives have a fitted effect of over 55% in size
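ThT emission at 510 nm, taken 1 hr after adding 30 uM dye, quantifies aggregates formed when 20 uM heparin acts on human tau K18 P301L for 6 hr at 37 C.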
TexasRed fluor = counter-screen for TRb-SRC2 inhibitors: fluorescence interference | TRb/SRC2 Texas Red total fluorescence interference | Potency, µM (series often up to 106 µM), for the others: at the highest dose fluorescence change, negative = quenching | 280,000 compounds, 0.29% hits | AID 1479; active means well fitted curve in either direction with a large enough effect; inconclusive means small, poorly fitted or top-dose-only effect
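Flags fluorescent or light-absorbing compounds by total fluorescence, S + 2P, at 555 nm excitation and 632 nm emission. Mixture: 20 nM Texas Red SRC2 peptide, 0.6 uM human TRb LBD, 1 uM T3, 5% DMSO; compound exposure 5 h at ambient temperature.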
Numbers without * were called inactive; i = inactive; ? = inconclusive. Unless noted, the call rests on the fitted dose curve; in most records, active means well fitted curve in the direction sought with a large enough effect; inconclusive means small, poorly fitted or top-dose-only effect, or another doubt; inactive means no such curve, though single readings can be large; an effect the other way counts as inactive or inconclusive. Unless noted, on the % scale 0 is the no-effect control and ±100 the full control effect; potency means the concentration at half of the fitted maximal effect. Only part of the results is shown. The share of hits here may be higher or lower than overall.

no.	structure	TRb-SRC2 inh	RECQ1 inh	Tau FP inhib	Tau ThT inhib	TexasRed fluor
1	O=C(O)C1c2ccccc2C(=O)N(Cc2ccc(F)cc2)C1c1ccncc1 (configuration not stated)	2%	i	?	-7%	-1%
2	COc1cc(-c2cccs2)cc(=O)c2c(C)oc(C)c12	3%	?	?	25µM*	7%
3	CCCCC(=O)Nc1ccc2c3c(cccc13)CC2	0%	-2%	1%	-3%	-1%
4	CCCN1C(=O)c2ccc(C(=O)NC3CCCCC3)cc2C1=O	-5%	-2%	-4%	-4%	-1%
5	O=C(O)c1cc2ccc3ccccc3c2oc1=O	-9%	-5%	-1%	20%	4%
6	CC(=O)N1CCN(c2nc(C)nc3sc4c(c23)CCC(C)C4)CC1 (configuration not stated)	-1%	i	7%	5%	-6%
7	CO[C@]12C(COC(N)=O)C3=C(C(=O)C(C)=C(N)C3=O)N1CC1NC12 (some centres not stated)	5%	i	-9%	-21%	-2%
8	Cc1ccccc1OCc1nc(-c2ccc(NC(=O)c3ccc4c(c3)OCO4)cc2)no1	-4%	-17%	?	?	1%
9	COc1ccc(/C=C2\Sc3ccc(C(=O)N4CCc5ccccc5C4)cc3N(C)C2=O)cc1	-1%	i	-3%	-17%	2%
10	Nc1ccccc1Oc1ncc(C(F)(F)F)cc1Cl	6%	-6%	0%	0%	-2%
11	C[C@]12C=CC(=O)C=C1CCC1C2C(O)C[C@]2(C)C1CC[C@]2(O)C(=O)CO (some centres not stated)	3%	i	3%	-3%	1%
12	COc1cccc(NC(=O)c2cc([N+](=O)[O-])ccc2NC(=O)CNCC2CCCO2)c1 (configuration not stated)	-3%	-1%	6%	-2%	-5%
13	Cc1nn(-c2ccccc2)c2[nH]c(=O)c(CNCc3ccc4c(c3)OCO4)cc12	-5%	16%	9%	-8%	-11%
14	Cn1c(SCC(=O)NCc2ccco2)nnc1-c1ccc(S(=O)(=O)N2CCOCC2)cc1	-6%	-16%	2%	-8%	0%
15	Cc1ccc(-c2nnc(SCC(=O)Nc3nc4c(s3)CCCC4)n2C)cc1	3%	-14%	-4%	?	2%

For reference, some entries already given.
no.	structure	TRb-SRC2 inh	RECQ1 inh	Tau FP inhib	Tau ThT inhib	TexasRed fluor
5	O=C(O)c1cc2ccc3ccccc3c2oc1=O	-9%	-5%	-1%	20%	4%
6	CC(=O)N1CCN(c2nc(C)nc3sc4c(c23)CCC(C)C4)CC1 (configuration not stated)	-1%	i	7%	5%	-6%
7	CO[C@]12C(COC(N)=O)C3=C(C(=O)C(C)=C(N)C3=O)N1CC1NC12 (some centres not stated)	5%	i	-9%	-21%	-2%
8	Cc1ccccc1OCc1nc(-c2ccc(NC(=O)c3ccc4c(c3)OCO4)cc2)no1	-4%	-17%	?	?	1%
9	COc1ccc(/C=C2\Sc3ccc(C(=O)N4CCc5ccccc5C4)cc3N(C)C2=O)cc1	-1%	i	-3%	-17%	2%
10	Nc1ccccc1Oc1ncc(C(F)(F)F)cc1Cl	6%	-6%	0%	0%	-2%
11	C[C@]12C=CC(=O)C=C1CCC1C2C(O)C[C@]2(C)C1CC[C@]2(O)C(=O)CO (some centres not stated)	3%	i	3%	-3%	1%
12	COc1cccc(NC(=O)c2cc([N+](=O)[O-])ccc2NC(=O)CNCC2CCCO2)c1 (configuration not stated)	-3%	-1%	6%	-2%	-5%
13	Cc1nn(-c2ccccc2)c2[nH]c(=O)c(CNCc3ccc4c(c3)OCO4)cc12	-5%	16%	9%	-8%	-11%
14	Cn1c(SCC(=O)NCc2ccco2)nnc1-c1ccc(S(=O)(=O)N2CCOCC2)cc1	-6%	-16%	2%	-8%	0%
15	Cc1ccc(-c2nnc(SCC(=O)Nc3nc4c(s3)CCCC4)n2C)cc1	3%	-14%	-4%	?	2%

Source: PubChem BioAssay (National Center for Advancing Translational Sciences (NCATS))
